SARS PLpro yeast – blocks SARS-CoV papain-like protease in a yeast assay; S. cerevisiae expressing SARS-CoV PLpro, growth rescue; control for the full effect not named in the record; Potency, µM (highest dose often 32.9 µM), inactives show top-dose activity, positive = growth rescue; hit rate 0.19% among 330,000; active means well fitted rising curve with a large enough effect; inconclusive means small, poorly fitted or top-dose-only effect; inactive means no such curve, though single readings can be large or run the other way; note: 0% is about no effect; nearly all actives have a fitted effect of over 55% in size; growth read by luminescence after 48 h
StopGo reporter – FMDV 2A StopGo reporter, luciferase signal | human cells with a luciferase reporter of 2A StopGo recoding; control for the full effect not named in the record | Potency, µM (top dose mostly 57.9 µM), for inactives: at the top dose signal change, negative = less light | hit rate 1.2% among 410,000; active = well fitted falling curve with a large enough effect; inconclusive = small, poorly fitted or top-dose-only effect; inactive = no such curve, though single readings can be large or run the other way; tested in HEK293T cells; note: % is set by controls: 0 for no effect and ±100 for the full control effect; nearly all actives have a fitted effect of over 45% in size; luciferase light after 4 h
NS1 function inh – inhibitors of influenza NS1 protein function; S. cerevisiae slowed by influenza A NS1, growth recovery by OD600; Potency, µM (titrated, usually from 46.1 µM), for the others: at the top dose activity, positive = more growth; hit rate 0.4% among 270,000; active means well fitted rising curve with a large enough effect; inconclusive means small, poorly fitted or top-dose-only effect; inactive means no such curve, though single readings can be large or run the other way; note: nearly all actives have a fitted effect of over 50% in size
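In this qHTS, NS1 from influenza A is expressed in budding yeast, where it slows growth. Cells are switched from glucose to 2% galactose medium (pH 6.0, -URA), treated with compound, and growth recovery is read at OD600.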
LASV entry inh – inhibitors of Lassa virus binding or cell entry. Lassa virus pseudotype entry inhibition, cell reporter; control for the full effect not named in the record. Potency, µM (series often up to 37.9 µM), without a hit: top-dose activity change, negative = inhibition, usual class: inhibitors. hit rate 1.2% among 300,000; active means well fitted inhibition curve with a large enough effect; inconclusive means small, poorly fitted or top-dose-only effect, or effect the other way; inactive means flat fitted curve, though single readings scatter; tested in HEK293 cells; note: % is set by controls: 0 for no effect and ±100 for the full control effect; nearly all actives have a fitted effect of over 50% in size; luciferase read-out
RE007 growth inh – less growth of the S. pombe RE007 Vpr strain. S. pombe RE007 Vpr strain, BacTiter-Glo ATP luminescence, 24 h; control for the full effect not named in the record. Potency, µM (top dose mostly 92.2 µM), for the others: top-dose activity change, negative = less growth. hit rate 0.21% among 360,000. AID 651644; active = well fitted falling curve with a large enough effect; inconclusive = small, poorly fitted or top-dose-only effect; inactive = no such curve, though single readings can be large or run the other way;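 note: % is set by controls: 0 for no effect and ±100 for the full control effect; nearly all actives have a fitted effect of over 50% in size; the assay follows cell death caused by Vpr and the record does not say whether a fall means rescue or toxicity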
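Fission yeast strain RE007, carrying one chromosomally integrated HIV-1 vpr copy, was seeded at OD 0.01 in PMG+AL medium with 23 nL pinned compound. After 24 h at 30 °C and 99% humidity, viability was read by BacTiter-Glo luminescence.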
MARV entry inh – inhibitors of Marburg virus binding or cell entry; Marburg virus pseudotyped entry inhibition, cell reporter; control for the full effect not named in the record; about a third of the inactives were read at about 46 µM; Potency, µM (top dose mostly 37.8 µM), for the others: at the top dose activity change, negative = inhibition, usual class: inhibitors; hit rate 1.8% among 300,000; active = well fitted inhibition curve with a large enough effect; inconclusive = small, poorly fitted or top-dose-only effect, or effect the other way; inactive = flat fitted curve, though single readings scatter; tested in HEK293 cells; about a fifth of its hits are not listed in these tables; note: % is set by controls: 0 for no effect and ±100 for the full control effect; luciferase read-out
Cruzain noTriton – blocks cruzain activity in detergent-free assay | P25779 | purified cruzain, Z-FR-AMC fluorescence, no detergent | hit rate 2.3% among 200,000 | Potency, µM, for the others: max response, negative = inhibition, hits mostly inhibitors;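 note: plate controls were enzyme without inhibitor for no effect and buffer without enzyme for full effect; nearly all actives have a fitted effect of over 40% in size; top concentration of the series not given in the record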
Target sequence (P25779 123-467 limits assumed): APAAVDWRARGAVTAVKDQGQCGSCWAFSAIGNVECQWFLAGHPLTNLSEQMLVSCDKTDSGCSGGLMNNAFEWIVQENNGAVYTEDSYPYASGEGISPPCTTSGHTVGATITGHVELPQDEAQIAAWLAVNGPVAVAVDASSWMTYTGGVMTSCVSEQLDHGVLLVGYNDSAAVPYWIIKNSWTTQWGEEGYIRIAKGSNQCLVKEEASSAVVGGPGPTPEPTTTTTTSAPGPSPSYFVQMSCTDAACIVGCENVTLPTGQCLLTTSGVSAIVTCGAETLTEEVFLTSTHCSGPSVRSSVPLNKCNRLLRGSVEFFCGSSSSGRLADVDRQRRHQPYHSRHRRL
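Detergent-free condition (0.00005% Triton X-100) in acetate buffer pH 5.5 with DTT. 1.5 nM enzyme and compound were pre-mixed 15 min, then 2 uM Z-FR-AMC substrate added; reaction progress from fluorescence change between first and third reads (60 s).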
Cruzain inh Det – inhibitors of Trypanosoma cruzi cruzain with detergent; P25779; purified cruzain, Z-FR-AMC fluorescence, 0.01% Triton; Potency, µM, inactives show max response, negative = inhibition, actives largely listed as inhibitors; hit rate 0.43% among 200,000; AID 1478;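 note: plate controls were neutral wells for no effect and buffer without enzyme for full effect; nearly all actives have a fitted effect of over 40% in size; top concentration of the series not given in the record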
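Cysteine protease activity tested under reducing, mildly acidic conditions (100 mM sodium acetate pH 5.5, 5 mM DTT) plus 0.01% Triton X-100. Cruzain 1.5 nM; substrate Z-FR-AMC 2 uM; 15 min compound preincubation at room temperature.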
* marks the source's active call; other numbers are inactive results; ? = inconclusive; · = not tested or not shown; [ ] = remark or other dose. Unless noted, calls come from the whole dose curve; as a rule, active = well fitted curve in the direction sought with a large enough effect; inconclusive = small, poorly fitted or top-dose-only effect, or another doubt; inactive = no such curve, though single readings can be large; an effect the other way counts as inactive or inconclusive. Potency is the fitted concentration of half-maximal effect.

SMILES	SARS PLpro yeast	StopGo reporter	NS1 function inh	LASV entry inh	RE007 growth inh	MARV entry inh	Cruzain noTriton	Cruzain inh Det
CCC(Sc1nc2cc3c(cc2c(=O)n1CCCC(=O)NCc1ccc(OC)cc1)OCO3)C(=O)NCCCOC (stereo not drawn)	·	0%	·	1%[46.1 µM]	·	·	13%	1.7%
Nc1nc(CSc2n[nH]c(-c3ccccc3)n2)nc(Nc2ccccc2)n1	-1%	?	-22%	?	3%	?	-1%	-5.3%
O=C(CCC(=O)c1ccc(F)cc1)OCc1nnc(-c2ccc([N+](=O)[O-])cc2)o1	2%	-15%	·	-1%	-29%	?	·	·
CCCCCn1c(N)c(-c2nc3ccccc3s2)c2c([N+](=O)[O-])nn(C)c(=O)c21	4%	4%	5%	-16%	13%	?	0%	-0.6%
O=C(Cn1cc([N+](=O)[O-])cn1)NCc1cc2ccccc2[nH]1	2%	-22%	15%	-20%	21%	1%	12%	-1.9%
CC(Nc1ccc(N2CCOCC2)cc1)C(=O)N1c2ccccc2CC1C (stereo not drawn)	-1%	-1%	-6%	·	-19%	·	·	·
C/C(CC(=O)Nc1cccc2c1CCCC2)=N\NC=O	-2%	-9%	3%	0%	1%	?	·	·
Cc1cc(OCC(=O)NCC2CCC(C(=O)O)CC2)c2c(C)c(C)c(=O)oc2c1 (stereo not drawn)	13%	-27%	15%	·	5%	·	·	·
CCOC1CS(=O)(=O)CC1OCC (stereo not drawn)	14%	?	8%	18%	15%	-3%	-10%	8.7%
Cc1nn(-c2ccccc2)c2nc(-c3ccncc3)cc(C(=O)NCc3ccco3)c12	-15%	10%	7%	-9%	-4%	?	?	-6.2%
COC(=O)c1ccc([C@H]2Nc3ccc(S(=O)(=O)Nc4cccc(C)c4)cc3[C@H]3C=CC[C@H]32)cc1	·	-15%	·	?	·	-3%[46.1 µM]	-24%	-11%
CC(=O)/C=C/c1ccccc1	5%	-3%	·	·	-8%	·	-3%	4.6%
O=C(c1ccc2c(=O)n(Cc3ccccc3Cl)c(=S)[nH]c2c1)N1CCOCC1	4%	-14%	5%	-29%[46.1 µM]	-4%	?	·	·
O=C(Nc1ccc2c(c1)C(=O)c1ccccc1-2)c1ccccc1	·	40%[activator]	·	8%[46.1 µM]	1%	?	·	·
O=C(CN(CC1CCCO1)C(=O)CNS(=O)(=O)c1ccc(Cl)cc1)NCc1ccco1 (stereo not drawn)	0%	-5%	3%	-1%	-20%	4%[46.1 µM]	·	·
COC(=O)CN1C(=O)N/C(=C/c2ccccc2OC)C1=O	-1%	39%[activator]	·	1%	-3%	5%[46.1 µM]	·	·
NC1CCCCC1N=Cc1c(O)n(CCc2ccc(F)cc2)c(=O)[nH]c1=O (stereo not drawn)	17%	-7%	?	-5%	10%	6%	-17%	-1.7%
CC(C)CN1CN(Cc2ccco2)CNC1=S	6%	-8%	-5%	21%	9%	?	2%	0.7%
CSCCC(NS(=O)(=O)c1ccc(C)cc1)C(=O)NC1CCCCC1 (stereo not drawn)	-1%	0%	·	4%[46.1 µM]	3%	?	·	·
O=C(Nc1ccccc1)c1ccc2c(c1)OCO2	-18%	25%	-66%	-9%	?	?	1%	-3.1%
CCOC(=O)c1ccc(NC(=S)N2CCSC2c2ccc(OC)cc2)cc1 (stereo not drawn)	-13%	23%	1%	?	5%	19%	-3%	-4.9%
CCOc1ccc(N=c2scc(-c3ccc(OC)cc3)n2CCO)cc1	6%	-21%	14%	-23%	3%	-15%	6%	-4.1%
CC(=O)Nc1ccc(NC(=O)CCOc2ccccc2C)cc1	2%	-8%	-2%	-22%[46.1 µM]	26%	22%[46.1 µM]	·	·
COc1ccc2c(c1)CCc1c(C(=O)Nc3c(C)nn(Cc4ccc(Cl)cc4)c3C)noc1-2	·	-26%	·	-10%[46.1 µM]	·	-4%[46.1 µM]	2%	-5.4%
CCOc1cccc(C2c3[nH]c4ccccc4c3CCN2C(=O)c2ccccc2F)c1 (stereo not drawn)	·	-3%	·	?	·	·	?	2.1%

Later entries:
SMILES	SARS PLpro yeast	StopGo reporter	NS1 function inh	LASV entry inh	RE007 growth inh	MARV entry inh	Cruzain noTriton	Cruzain inh Det
CC1=NOC(=O)/C1=C\c1ccc(-c2ccc(Br)cc2C(=O)O)o1	-3%	9%	5%	16%[46.1 µM]	-14%	-6%[46.1 µM]	·	·
CCCCn1c(N)c(N(CC(C)C)C(=O)CCCc2cccs2)c(=O)[nH]c1=O	3%	-3%	?	28%	6%	-13%	·	·
O=C(NCC(O)CO)c1csc(Nc2cccc3ccccc23)n1 (stereo not drawn)	-4%	-7%	8%	·	12%	?	·	·
CCc1ccc(-n2nnc(-c3nc(-c4ccccc4)no3)c2C)cc1	·	27%	·	23%[46.1 µM]	·	·	11%	2.6%
O=C(NCC(O)c1ccc([N+](=O)[O-])cc1)c1cccc(S(=O)(=O)N2CCOCC2)c1 (stereo not drawn)	-1%	-5%	-8%	?	24%	-4%	·	·
COCCN(C(=O)COC(=O)CCOc1cccc(C)c1)c1c(N)n(Cc2ccccc2)c(=O)[nH]c1=O	0%	-14%	·	20%	-12%	-17%[46.1 µM]	·	·
Cc1ccc(-n2cnc3c(=O)[nH]cnc32)cc1[N+](=O)[O-]	·	-24%	·	12%	-14%	-17%	·	·
O=C(Nc1ncc(Cc2ccccc2)s1)c1cccs1	8%	-6%	-48%	?	?	?	-16%	-11%
Cc1onc(-c2c(Cl)cccc2Cl)c1C(=O)Nc1nccs1	-2%	-11%	-16%	-1%[46.1 µM]	-27%	?	·	·
O=[N+]([O-])c1nn(-c2ccccc2)n(O)c1=NCCc1ccccc1	-65%	9%	-35%	?	-2%	?	-7%	-5.1%
Cc1cccc(C)c1NC(=O)c1oc2c(c1C)-c1nn(Cc3ccccc3)cc1CC2	·	?	·	-8%[46.1 µM]	·	·	12%	-5.5%
O=C(/C=C/c1ccc(Cl)c(Cl)c1)NC1=NCCS1	-1%	59%[activator]	4%	-12%	-4%	-20%[46.1 µM]	·	·
CC1C(=O)C(C)C(c2ccccc2F)NC1c1ccccc1F (stereo not drawn)	-3%	-16%	-2%	·	-5%	·	·	·
O=C(C1CCN(C2CC(=O)N(c3cccc(Cl)c3)C2=O)CC1)N1CCCCCC1 (stereo not drawn)	-24%	-26%	-141%	-1%	7.1µM*	-14%	?	1.0%
COc1ccc(C(=O)Nc2ccccc2-c2nnn(CC(=O)N3CCOCC3)n2)cc1	1%	-17%	1%	1%	10%	-16%	·	·
CC[C@@H]1CC=C[C@H]2[C@H]1C(=O)N(Cc1ccccc1)[C@H]2c1ccc(C(F)(F)F)cc1	-11%	-2%	-48%	·	7%	·	·	·
COc1cccc(-c2csc(-c3c(N)c(C(=O)c4ccc5c(c4)OCO5)n4ccccc34)n2)c1	·	-1%	·	15%[46.1 µM]	·	?	3.2µM*	-2.1%
CCN(C(=S)Nc1cc(S(=O)(=O)N2CCOCC2)ccc1Cl)c1cccc2ccccc12	-5%	-9%	-40%	1%	-6%	-4%	-22%	-6.5%
N#C/C(=C/c1ccc(N2CCCCCC2)o1)c1ccc(Cl)cc1	-27%	25µM*	-120%	-25%	25µM*	?	?	-9.6%
O=[N+]([O-])c1cccc(Cn2cnc3c(=S)nc[nH]c32)c1	·	-9%	·	-5%[46.1 µM]	11%	-3%[46.1 µM]	·	·
CC(C)C(c1nnnn1Cc1ccc2c(c1)OCO2)N1CCN(c2ccccc2)CC1 (stereo not drawn)	1%	5%	0%	?	1%	4%[46.1 µM]	-3%	-1.7%
Cc1nnc(-c2cccc(C(F)(F)F)c2)nc1N1CCOCC1	-2%	9%	-4%	0%	-16%	2%[46.1 µM]	·	·
Cc1cccc(NC(=O)C2C(c3ccccc3)C2(Cl)Cl)c1 (stereo not drawn)	-5%	-19%	-49%	·	-1%	·	·	·
CNC(=O)C1CC(=O)N(Cc2ccc(OC)c(OC)c2)C(=Nc2ccc(OC)cc2)S1 (stereo not drawn)	2%	-11%	-1%	-9%	-6%	19%	?	2.2%
CC(NC(N)=O)C12CC3CC(CC(C3)C1)C2 (stereo not drawn)	0%	-10%	-7%	?	13%	9%	9%	-1.5%

Remaining list, next part.
SMILES	SARS PLpro yeast	StopGo reporter	NS1 function inh	LASV entry inh	RE007 growth inh	MARV entry inh	Cruzain noTriton	Cruzain inh Det
Cc1cc(NC(=O)CCC(=O)N(c2ccc(C)c(F)c2)C(C(=O)NC2CCCC2)c2ccco2)no1 (stereo not drawn)	-1%	13%	-6%	-9%[46.1 µM]	3%	?	·	·
CCCCCCNC(=O)CCCCCNS(=O)(=O)c1ccc(OC)cc1	-18%	12%	-5%	?	17%	-18%	12%	-2.8%
CCSc1nnc(NC(=O)c2csc3c2CCCC3)s1	0%	-1%	7%	-1%	-12%	?	?	3.0%
CC(=O)c1c(C)[nH]c(C(=O)Nc2ccc3c(c2)OCCO3)c1C	-8%	16%	-7%	?	3%	?	-2%	0.2%
COc1ccc(C(=O)Nc2nnc(SCC(=O)NCc3ccco3)s2)c(OC)c1	12%	-59%	14%	·	-3%	·	·	·
Cc1cc(C)n(C(=O)c2ccc(Cl)c(F)c2F)n1	1%	1%	0%	21%	0%	?	·	·
CCOc1ccc(S(=O)(=O)Nc2ccc3oc(C)c(C(=O)OCCOC)c3c2)cc1	·	-4%	·	-1%[46.1 µM]	·	·	11%	-9.2%
Cc1ccc(CNC(=O)CCCCCNC(=O)N2CCn3c2nc2ccccc23)cc1	12%	12%	21%	·	-6%	·	·	·

For convenience, part of the list above:
SMILES	SARS PLpro yeast	StopGo reporter	NS1 function inh	LASV entry inh	RE007 growth inh	MARV entry inh	Cruzain noTriton	Cruzain inh Det
CCCCCCNC(=O)CCCCCNS(=O)(=O)c1ccc(OC)cc1	-18%	12%	-5%	?	17%	-18%	12%	-2.8%
CCSc1nnc(NC(=O)c2csc3c2CCCC3)s1	0%	-1%	7%	-1%	-12%	?	?	3.0%
CC(=O)c1c(C)[nH]c(C(=O)Nc2ccc3c(c2)OCCO3)c1C	-8%	16%	-7%	?	3%	?	-2%	0.2%

Bioassay records: PubChem BioAssay, National Center for Advancing Translational Sciences (NCATS)
